# CBX7 AlphaScr = inhibitors of human CBX7 binding to H3K27me3 peptide | AID 1224903 | normalised signal (fraction of DMSO) (concentration not given with the values) | O95931 | actives 1.1% (n = 66,000) | AlphaScreen His6-CBX7 / biotin-H3K27me3 peptide binding; stronger effect = lower value; in the data active = normalised signal below about 0.5;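 also: 100 nL library stock added to about 20 µL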
# Target sequence (O95931 whole entry, looked up): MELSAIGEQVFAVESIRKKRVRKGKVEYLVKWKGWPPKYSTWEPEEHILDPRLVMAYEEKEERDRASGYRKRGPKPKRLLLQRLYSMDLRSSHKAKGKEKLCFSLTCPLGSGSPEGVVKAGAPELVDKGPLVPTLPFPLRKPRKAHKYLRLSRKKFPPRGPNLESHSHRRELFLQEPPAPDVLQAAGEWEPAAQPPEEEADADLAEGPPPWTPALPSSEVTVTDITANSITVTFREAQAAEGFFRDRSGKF
# CBX7 AlphaScr z-score = recorded beside CBX7 AlphaScr, whose call it bears; z-score; measured here: z-score of CBX7 signal; some inactives read as strong as hits; reference of the scale not given here;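 same signal on another scale; lower means less binding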
# * hit, by the source's call; & = joins results of further samples. This is a subset; count on the stated rates, not on these rows.
# The first 3 entries, to show the layout:
compound | CBX7 AlphaScr | CBX7 AlphaScr z-score
O=C1c2ccccc2C(Nc2ccccc2Br)N1c1cccnc1 (configuration not stated) | 1.02 | 0.276
O=C(NC1CCCCCC1)C1CCN(c2nc3ccccc3o2)CC1 | 1.03 | 0.85
Cc1cc(Nc2ccc(C)c(F)c2)n2nc(C)nc2n1 | 1.04 | 0.94

# The listing, previewed entries included:
compound | CBX7 AlphaScr | CBX7 AlphaScr z-score
O=C1c2ccccc2C(Nc2ccccc2Br)N1c1cccnc1 (configuration not stated) | 1.02 | 0.276
O=C(NC1CCCCCC1)C1CCN(c2nc3ccccc3o2)CC1 | 1.03 | 0.85
Cc1cc(Nc2ccc(C)c(F)c2)n2nc(C)nc2n1 | 1.04 | 0.94
COc1cccc(C(=O)Nc2ccc(Cl)c(-c3nc4cc(C)ccc4o3)c2)c1 | 0.94 | -0.137
CCOc1ccc2nc(N3CCCC(C(=O)NCc4ccc(Cl)cc4)C3)sc2c1 (configuration not stated) | 1 | 0.0343
CCOc1ccc(-c2cc(C(=O)NCc3ccccc3OC)c3ccccc3n2)cc1 | 0.955 | -0.853
O=C(O)c1ccccc1NC(=O)C1CCCN(S(=O)(=O)c2cnc[nH]2)C1 (configuration not stated) | 0.96 | -0.915
COc1ccc(Nc2cc(C(=O)NCc3ccccc3OC)c3ccccc3n2)c(OC)c1 | 0.785 | -3.88
Cc1cccc(C(=O)NCc2nc3ccccc3n2Cc2ccccc2C)c1 | 0.884 | -1.34
COc1ccc(NC(=O)CSc2nc(-c3ccc(F)cc3)[nH]c2-c2ccccc2)cc1OC | 0.784 | -10.3
Cc1cccc(C(=O)Nc2c(C(=O)Nc3ccccc3F)oc3ccccc23)c1 | 1.06 | 1.63
CCCCCNC(=O)c1ccc(CNS(=O)(=O)c2ccc(Cl)cc2)cc1 | 1.1 | 1.07
CCCOc1ccccc1NC(=O)CC1Sc2ccccc2NC1=O (configuration not stated) | 0.981 | -0.42
Cc1cccc(CSc2nc3ccncc3n2CC(=O)N2CCCCCC2)c1 | 0.974 | -0.373
Cc1cc(NS(=O)(=O)c2ccc(NC(=O)C3CC3)cc2)nc(C)n1 | 1.05 | 1.3
CC(C)c1ccc(Nc2c(-c3ccsc3)nc3ccc(Cl)cn23)cc1 | 1.04 | 0.345
CCC(C)NC(=O)c1cn(CC(C)C)c(=O)c2cc(OC)c(OC)cc12 (configuration not stated) | 0.981 | -0.158
COc1ccc(-n2nc(C(=O)Nc3cc(C)on3)c3ccccc3c2=O)c(OC)c1 | 1 | -0.00663
CCC(C)NC(=O)CN1C(=O)CCSc2ccccc21 (configuration not stated) | 1.03 | 1.39
Nc1nonc1-c1nc2ccccc2n1CC(=O)Nc1ccc(OC(F)(F)Cl)cc1 | 1.04 | 1.33
Cc1nc2ccc(S(=O)(=O)NC(C(=O)N3CCN(c4ccc(F)cc4)CC3)C(C)C)cc2s1 (configuration not stated) | 0.849 | -2.36
CC1CCCC(NC(=O)c2cc3sc(Cl)cc3n2C)C1C (configuration not stated) | 1.01 | 0.509
O=C(NCc1ccc2c(c1)OCO2)C1CC(=O)N(C2CCCCCCC2)C1 (configuration not stated) | 1.02 | 0.741
COc1ccc(N2C(=O)CC(NCCCc3ccccc3)C2=O)cc1 (configuration not stated) | 1.04 | 1.9
COc1ccccc1NC(=O)CNC(=O)Cn1c(C)cc2ccccc2c1=O | 0.993 | -0.0716
COC(CNC(=O)c1cc(-c2cccnc2)nc2ccc(S(=O)(=O)N3CCC(C)CC3)cc12)OC | 1.29 | 1.89
CC(C)c1ccc(S(=O)(=O)Nc2ccc3oc4c(c3c2)CC(C(C)(C)C)CC4)cc1 (configuration not stated) | 0.907 | -0.602
O=C(CCNC(=O)Cn1ccc2ccccc2c1=O)NCCCN1CCC(Cc2ccccc2)CC1 | 1.04 | 0.765
CCc1noc(C)c1C(=O)Nc1nnc(-c2ccc(OC)cc2)s1 | 1.04 | 1.44
COc1cc(OC)cc(-c2nnc(SCC(=O)Nc3nc(-c4ccccc4)cs3)o2)c1 | 1.01 | 0.214
CCOc1cccc(C(=O)Nc2nnc(SCc3ccc(Cl)cc3Cl)s2)c1 | 0.983 | -0.19
Cc1nc2sc(C(c3ccc(C(C)C)cc3)N3CCN(CCO)CC3)c(O)n2n1 (configuration not stated) | 1.02 | 1.17
COc1ccc(C(c2sc3nc(C)nn3c2O)N2CCN(C)CC2)cc1OC (configuration not stated) | 0.987 | -0.612
CCCCN1C(=O)c2ccccc2C1C(=O)NC1CCCCC1 (configuration not stated) | 0.926 | -1.83
CC(=O)Nc1ccc(NC(=O)C2(c3ccccc3)CCCC2)cc1 | 1.03 | 0.463
O=c1c(-c2ccc(Cl)cc2)coc2c(CN3CCOCC3)c(O)ccc12 | 0.965 | -1.03
O=C(Cn1cnc2c(nnn2Cc2ccc(F)cc2)c1=O)NCc1ccccc1 | 0.898 | -1.68
COc1ccc(-n2cnc3cc(C(=O)NCCc4ccccc4)ccc32)cc1 | 1.06 | 0.599
O=C(Nc1ccc(-c2noc(-c3ccccc3Br)n2)cc1)c1cccs1 | 1.02 | 0.208
COc1ccccc1NC(=O)c1c(NC(=O)c2ccccc2)sc(-c2ccccc2)c1C | 1.13 | 6.02
COc1ccc(CCNCc2c(C(=O)O)c(C)n(Cc3ccccc3)c2C)c(OC)c1 | 1.02 | 0.533
Cc1cc(NC(=O)C(CC(C)C)NS(=O)(=O)c2ccc3nc(C)sc3c2)n[nH]1 (configuration not stated) | 0.968 | -0.964
Cc1ccc(OCc2nc(C#N)c(NCCN3CCOCC3)o2)cc1 | 0.961 | -0.712
COc1ccc(S(=O)(=O)Nc2cccc(-c3cn4cccc(C)c4n3)c2)cc1 | 0.938 | -1.27
COCCCNC(=O)Cc1cn(C)c2ccccc12 | 1.03 | 0.537

# Fetched by structure from the list above (two):
compound | CBX7 AlphaScr | CBX7 AlphaScr z-score
Cc1cc(NC(=O)C(CC(C)C)NS(=O)(=O)c2ccc3nc(C)sc3c2)n[nH]1 (configuration not stated) | 0.968 | -0.964
CCCCN1C(=O)c2ccccc2C1C(=O)NC1CCCCC1 (configuration not stated) | 0.926 | -1.83

# More compounds follow:
compound | CBX7 AlphaScr | CBX7 AlphaScr z-score
Cc1ccc(CNC(=O)c2c[nH]c3ccc(S(=O)(=O)N4CCC(C)CC4)cc3c2=O)cc1 | 1.13 | 1.94
Cc1ccc(C)c(C(=O)CSc2n[nH]c(-c3ccncc3)n2)c1 | 0.957 | -0.0881
O=C(CSc1nc(-c2ccccc2)[nH]c1-c1ccccc1)Nc1ccccc1 | 0.811 | -8.97
CC(=O)Nc1nnc(CCS(=O)(=O)c2ccc(C)c(C)c2)s1 | 1.11 | 1.21
CCOc1ccc(C2C(N3C(=O)c4ccc([N+](=O)[O-])cc4C3=O)C(=O)N2c2cc(Cl)ccc2C)cc1 (configuration not stated) | 0.759 | -5.33
CCOc1ccc(CNC(=O)c2cc(=O)[nH]c3ccc(Br)cc23)cc1OC | 0.927 | -1.38
NC(=O)CSc1nc2ccccc2n1CCOc1ccccc1F | 0.91 | -2.24
Cc1ccc(N2CC(C(=O)Nc3cccc(Br)c3)CC2=O)cc1 (configuration not stated) | 1.02 | 0.606
CC(C(=O)N1CCN(c2ccccc2)CC1)C1Sc2ccccc2N(Cc2ccc(F)cc2)C1=O (configuration not stated) | 0.769 | -4.56
Cc1cc2cc(CCNC(=O)c3cccs3)c(=O)[nH]c2cc1C | 1.02 | 0.809
COc1cccc(NC(=O)CN2C(=O)COc3ccc(Cl)cc32)c1 | 1.01 | 0.336
COc1ccccc1Nc1cc(C(=O)NCCCN2CCCC(C)C2)c2ccccc2n1 (configuration not stated) | 1.14 | 0.141
COc1ccc2cc(CCNC(=O)c3ccccc3)c(=O)[nH]c2c1 | 1.02 | 0.665
FC(F)(F)Oc1ccc(Nc2ccnc3cc(Cl)ccc23)cc1 | 1.17&1.14 | 1.22&0.63
COc1cc2c(cc1OC)C(c1ccc(N(C)C)cc1)NCC2 (configuration not stated) | 0.717 | -0.282
COc1cccc(-n2ccnc2SCC(=O)Nc2ccc(Br)cc2)c1 | 0.458* | -0.719*
CCCCC(NC(=O)CSc1nnc(-c2ccccc2)n1-c1ccccc1)C(=O)O (configuration not stated) | 1.06 | 1.55
COc1cc(OC)cc(C(=O)Nc2ccc(-c3nc4cc(C)cc(C)c4o3)cc2)c1 | 0.997 | -0.0445
COc1cc2c(cc1OC)C1C(C(=O)Nc3ccc4c(c3)OCCO4)c3ccccc3C(=O)N1CC2 (configuration not stated) | 0.935 | -0.23
Cc1cc2cc(CNC(=O)c3ccc(S(=O)(=O)N4CCCCC4)cc3)ccc2[nH]1 | 0.82 | -2.94
CC(C)OCCCNc1nc(-c2ccc(Cl)cc2)nc2ccccc12 | 1.29 | 9.97
O=C(NCC1COc2ccccc2O1)Nc1cccc(C(F)(F)F)c1 (configuration not stated) | 1.18 | 1.1
COc1cc(Cl)c(S(=O)(=O)NCCc2c(C)[nH]c3ccc(Br)cc23)cc1Cl | 0.806 | -2.98
Cc1sc2nc(Cc3ccccc3)nc(Nc3ccc(O)cc3)c2c1C | 1.02 | 0.385
CCOc1ccccc1NC(=O)CSc1nnc(CNC(=O)c2ccc(OC)c(OC)c2)o1 | 0.846 | -2.53
CCC1CCCCN1CCCNC(=O)c1cn(CC)c(=O)c2cc(OC)c(OC)cc12 (configuration not stated) | 1.14 | 1.98
CC1CCC(NC(=O)C2(C)CCC(=O)N2Cc2ccccc2)CC1 (configuration not stated) | 1.01 | 0.15
COc1ccc(CCNC(=O)Cn2ncc3c2-c2cc(C)ccc2OC3)c(OC)c1 | 0.906 | -1.77
COc1cccc(NC(=O)c2cc3c(-c4ccc(OC)c(OC)c4)nn(C)c3s2)c1 | 0.995 | -0.0523
COc1ccc(CCNC(=O)CC2Oc3ccc(Cl)cc3NC2=O)cc1OC (configuration not stated) | 0.995 | -0.209
Nc1c(C(=O)NCCCN2CCOCC2)nnn1Cc1ccccc1 | 0.773 | -2.23
O=S(=O)(Nc1ccccc1Cl)c1cccnc1 | 1.16 | 1.7
CCCC(=O)NC(c1ccc(C)cc1)c1cc(Cl)c2cccnc2c1O (configuration not stated) | 0.72 | -0.986
O=C(Nc1cccc(O)c1)c1cc2n(n1)C(C(F)(F)F)CC(c1cccs1)N2 (configuration not stated) | 1.15 | 1.54
CCOc1ccc(CC(=O)Nc2c(C(N)=O)oc3ccc(Br)cc23)cc1OCC | 1.02 | 0.685
COc1ccc2[nH]c(C)c(CN3CCCCC3)c(=O)c2c1 | 1.44 | 0.902
CC(C)CCNC(=O)C1CC(=O)N(c2ccc(F)c(Cl)c2)C1 (configuration not stated) | 0.936 | -0.986
Cc1ccc(CCNC(=O)CCn2nc(-c3ccc(C)cc3)ccc2=O)cc1 | 1.05 | 1.41
O=C1c2ccccc2C(Nc2ccccc2)N1c1ccc(Cl)cn1 (configuration not stated) | 0.818 | -2.59
Cc1cccc(NC(=O)CN(C)S(=O)(=O)c2cnc[nH]2)c1 | 0.993 | -0.0565
Cc1cc(C(=O)NCCCN2CCc3ccccc3C2)n(-c2ccccc2)n1 | 1.03 | 0.868
COc1ccccc1-c1c(C)nn2c(NCCN3CCCCCC3)cc(C)nc12 | 1.02 | 0.042
COc1cccc(C2=NOC(C(=O)NCc3cccs3)C2)c1 (configuration not stated) | 0.998 | -0.0303
O=C(Nc1ccc2oc(-c3ccccc3F)nc2c1)c1cccs1 | 0.995 | -0.24
COc1ccc(NC(=O)CSc2nnc(Cc3cc(=O)[nH]c(=O)[nH]3)n2-c2ccc(F)cc2)cc1 | 1.01 | 0.195
CCCN(C(=O)Cc1c(C(=O)O)[nH]c2ccccc12)c1cccc(Cl)c1 | 1.01 | 0.307
CCOC(CNC(=O)c1sc2ncn(CC(=O)Nc3ccccc3OC)c(=O)c2c1C)OCC | 1.3 | 2.87
COc1ccccc1-n1cnc2cc(C(=O)NCCc3ccccc3)ccc21 | 0.853 | -1.84
CCc1ccccc1NS(=O)(=O)c1cnc[nH]1 | 0.992 | -0.29
COc1ccc(NS(=O)(=O)c2ccc3c(c2)CCN3C(C)=O)cc1Cl | 1.01 | 0.232
Cc1ccc(OCCn2c(SCCO)nc3ccccc32)cc1 | 0.955 | -0.16
COc1ccc(-c2noc(C(C)Oc3ccc(Cl)cc3Cl)n2)cc1 (configuration not stated) | 1.8 | 7.92
Cc1cccc(N2CCN(C(=O)Cn3nc(Cc4cccnc4)c4ccccc4c3=O)CC2C)c1 (configuration not stated) | 0.817 | -0.242
COc1ccc(-c2nc3ccc(Cl)cn3c2Nc2ccc3c(c2)OCO3)cc1 | 0.816 | -3.02
COC(=O)c1sccc1NC(=O)c1ccc2c(c1)NC(=O)c1ccccc1S2 | 0.947 | -1.5
COc1ccc(-c2noc(CCC(=O)Nc3ccc(Oc4ccccc4)cc3)n2)cc1 | 1.04 | 1.22
COc1ccc(CCNC(=O)c2cc(-c3ccc4c(c3)OCO4)on2)cc1OC | 1.01 | 0.4
COc1ccc(-c2noc(COc3ccc(Cl)cc3)n2)cc1 | 1.21 | 2.62
CCOc1ccc2nc(N3CCC(C(=O)Nc4cc(C)cc(C)c4)CC3)sc2c1 | 0.996 | -0.143
O=C(NCc1ccccc1)c1cc2c(s1)CS(=O)(=O)C2 | 0.996 | -0.0774

# (next part)
compound | CBX7 AlphaScr | CBX7 AlphaScr z-score
COc1nnc(-c2ccc(N3CCCCC3)c(NC(=O)c3ccccc3)c2)c2ccccc12 | 0.933 | -1.9
Fc1cccc(Cl)c1-c1noc(-c2cc(-c3ccncc3)nc3ccccc23)n1 | 0.924 | -0.076
CC(C)CC(=O)Nc1nnc(Cc2ccccc2F)s1 | 1.01 | 0.14
O=C(CSc1nnc(CNC(=O)c2cccs2)o1)Nc1ccc(F)cc1F | 1 | 0.148
CCCCCCOc1ccc(C2C(=O)N(C3CCCCC3)CC(=O)N2CCCC)cc1 (configuration not stated) | 0.733 | -1.08

# Single records, as listed above:
# O=C(O)c1ccccc1NC(=O)C1CCCN(S(=O)(=O)c2cnc[nH]2)C1 (configuration not stated) in the list: CBX7 AlphaScr: 0.96; CBX7 AlphaScr z-score: -0.915
# O=C(Nc1cccc(O)c1)c1cc2n(n1)C(C(F)(F)F)CC(c1cccs1)N2 (configuration not stated) in the list: CBX7 AlphaScr: 1.15; CBX7 AlphaScr z-score: 1.54
